# High-throughput results from PubChem BioAssay.
# T cruzi repl: T. cruzi replication inhibition; T. cruzi beta-gal in NIH3T3, luminescence, 90 h; inhibition, % (concentration not given with the values); actives 1.4% (n = 300,000); AID 1885;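 active = mean inhibition across valid replicates above about 55%, limit read from the data; inconclusive = mean below that limit but half or more replicates reach it; inactive = mean below it, under half of replicates reach it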;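 note: signal also drops with host cell toxicity which is not excluded here; 0% = plate median of DMSO wells and 100% = zero luminescence signal; higher percent means less beta-gal luminescence so fewer parasites; stock transfer was 50 nL into about 50 µL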
# rRNA inh HTS: inhibitors of bacterial rRNA selective over humanized ribosomes; AID 720706; E. coli WT GFP vs humanized-ribosome RFP mutants, fluorescence, 24 h; stronger effect = lower value; DMSO median 0, no signal -100; GFP signal change (wild-type ribosome), % (test concentration not listed); actives 1.6% (n = 350,000);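 active = significant combined selectivity score with lowered wild-type GFP, culture density cut under 30%, mutant RFP and density less affected; inactive = any of these conditions unmet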; note: one replicate is shown; some compounds called inactive have numbers as strong as hits
# Bfl-1 A1 inh: inhibitors of the anti-apoptotic protein A1, read as caspase activation. MEF A1-2A-BIM cells, Caspase-Glo 3/7 luminescence, 3 h; percent of clofoctol response, vehicle zero. caspase activation, % (test concentration not listed). actives 0.066% (n = 330,000). AID 2462;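 active = over half of replicate activation scores above 10%, or exactly half above 10 with the replicate mean above 10; inconclusive = replicate mean below 10 yet half the replicates above 10; inactive = over half of replicates below 10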;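 note: wells of about 30 µL received 50 nL stock; many hits fall short of the cut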
# LANA-H2B inh: blocks KSHV LANA binding to histone H2A/H2B; Q9QR71; cell-free LANA-H2A/H2B peptide, fluorescence polarization; inhibition, % (no concentration beside the values); actives 0.6% (n = 320,000); AID 2629; in the data active = inhibition mostly above about 10%, no sharp cut-off; inactive = mostly below about 6.7%;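 note: stock transfer was 7.5 nL into about 10 µL; 0% = median of vehicle wells and 100% = median of positive control wells; one replicate is shown; the record names a cut of 25% in any replicate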
# Calb FLC: affects C. albicans growth with fluconazole; C. albicans CaCi-2 (fluconazole-resistant clinical isolate) + fluconazole, Alamar Blue growth, 48 h; growth inhibition, % (test concentration not listed); actives 0.57% (n = 300,000); AID 1979;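 active = most replicates above 75%; inconclusive = exactly half above 75%; inactive = most below 75%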;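 note: all wells also contain fluconazole at 8 µg/ml as a sub-toxic cotreatment; 0% = median of DMSO wells and 100% = median of geldanamycin control wells; wells of about 8 µL received 7.5 nL stock; the first replicate is given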
# B2AR ag: human beta-2 adrenergic receptor agonism by FAP | actives 0.43% (n = 340,000) | Am2.2-beta2AR cells, FAP receptor internalization, flow cytometry; reference of the scale not given here | response, % (test concentration not listed) | P07550;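 active = response above a set limit, near 3 SD of response in nonfluorescent compounds, cut at about 42% in these data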;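 note: stock transfer was 100 nL into about 11 µL; a reference agonist was the positive control; negative values mostly stem from fluorescent compounds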
# Target sequence (P07550 whole entry, looked up): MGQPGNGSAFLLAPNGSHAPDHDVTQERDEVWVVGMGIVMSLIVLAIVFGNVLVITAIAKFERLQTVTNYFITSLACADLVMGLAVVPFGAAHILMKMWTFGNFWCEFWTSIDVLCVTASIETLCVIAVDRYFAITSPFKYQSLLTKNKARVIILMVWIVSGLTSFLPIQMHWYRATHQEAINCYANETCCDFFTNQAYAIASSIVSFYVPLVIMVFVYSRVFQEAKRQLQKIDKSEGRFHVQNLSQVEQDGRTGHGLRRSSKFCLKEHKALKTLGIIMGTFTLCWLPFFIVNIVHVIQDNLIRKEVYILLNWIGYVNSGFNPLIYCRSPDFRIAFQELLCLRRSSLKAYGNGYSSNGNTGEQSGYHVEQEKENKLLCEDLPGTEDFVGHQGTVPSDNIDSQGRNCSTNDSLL
# Beta cell apopt: blocks beta cell apoptosis | INS-1E cytokine-induced death, ATP luminescence, 48 h; percent of positive-control rescue, neutral wells zero | protection from apoptosis, % (no concentration beside the values) | actives 0.8% (n = 300,000) | AID 435005;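 active = all replicates at 75% or more, or half of them and the mean; inconclusive = half reach 75% but not the mean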;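 note: 0% = cytokine-treated negative control wells and 100% = positive control rescue; higher means more ATP so stronger rescue from cytokine killing; wells of about 40 µL received 100 nL stock; the first replicate is given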
# ALR H2O2 inh: blocks human ALR sulfhydryl oxidase activity. actives 3.8% (n = 290,000). P55789. purified ALR, DTT oxidation, H2O2 HRP-luminol luminescence. AID 485317. inhibition, % (test concentration not listed);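 active = mean and each replicate at 75% or more; inconclusive = only one of the two met; inactive = neither met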;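 note: stock transfer was 7.5 nL into about 7.5 µL; 0% = neutral wells and 100% = wells with inactivated enzyme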
# Target sequence (P55789 whole entry, looked up): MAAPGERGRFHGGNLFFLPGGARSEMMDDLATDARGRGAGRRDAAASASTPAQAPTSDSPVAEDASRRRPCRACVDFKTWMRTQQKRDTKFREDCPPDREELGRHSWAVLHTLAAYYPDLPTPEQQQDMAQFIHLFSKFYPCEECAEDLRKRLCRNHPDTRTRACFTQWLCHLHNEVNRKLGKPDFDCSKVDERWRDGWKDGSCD
# rRNA inh HTS OD600: recorded beside rRNA inh HTS, whose call it bears; OD600 change, %; measured here: OD600 growth;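 optical density of the mix in the first replicate; 0 = DMSO median and -100 = no signal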
# rRNA inh HTS RFP: recorded beside rRNA inh HTS, whose call it bears; RFP signal change, %; measured here: RFP humanized mutant strains;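 first replicate; 0 = DMSO median and -100 = no signal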
# Numbers without * were called inactive; ? = inconclusive; · = no result given.
SMILES,T cruzi repl,rRNA inh HTS,rRNA inh HTS OD600,rRNA inh HTS RFP,Bfl-1 A1 inh,LANA-H2B inh,Calb FLC,B2AR ag,Beta cell apopt,ALR H2O2 inh
COc1ccc(CCN(C)C(=O)c2cc(S(=O)(=O)N3CCCCC3)ccc2Cl)cc1OC,13,4,4,2.2,0.6,-0.4,-3,9,4,-3
CCc1ccc([C@@H]2CC=C(C(=O)O)[C@H](c3ccccc3)N2S(=O)(=O)c2ccc(C)cc2)cc1,·,-31,-34,-4.5,1.9,0.3,·,-14,1,3
CCC(CC)n1[nH]c(=O)c2c(C)cc(C)nc21,·,·,·,·,0.1,6.2,·,·,-3,11
CCOc1ccc(-c2c(C(=O)N/N=C(\C)c3cccs3)nnn2-c2nonc2N)cc1,-11,4,12,-1.5,0.1,4.0,11,-8,-3,-4
O=C1c2cccc3cccc(c23)C(=O)N1c1nncs1,-10,·,·,·,-0.4,2.6,-1,-4,-1,-9
Cc1ccc(OCC(=O)N2CCc3ccccc32)cc1,-10,-2,3,0.7,-3.7,-1.9,1,13,2,·
COc1cc(/C=C2/SC(=NCc3ccccc3)N(Cc3ccccc3)C2=O)ccc1O,-11,·,·,·,-0.3,0.1,-4,6,-5,-15
CCCn1c(=O)c2ccccc2n2c(SCCOc3ccc(C)cc3)nnc12,19,-3,3,-0.7,0.5,0.6,18,-13,-3,6
CCOC(=O)C1=C(N)N2C(=O)C(C)SC2=C(C(=O)OC)C1c1cccc(OC)c1 (configuration not stated),-1,1,-7,-0.6,0.9,1.7,0,3,-3,-17
COc1ccc(C(=O)C2CCCN(C(=O)c3cnsn3)C2)c(C)c1 (configuration not stated),-12,-6,-4,-4.7,·,·,-3,2,·,·
Cc1c(N=c2c(=O)c3ccccc3c2=O)c(=O)n(-c2ccccc2)n1C,-3,·,·,·,0.2,1.8,-9,·,-6,·
Cc1ccc(NP(=O)(c2ccc(N(C)C)cc2NC(=O)c2cccs2)N2CCOCC2)cc1Cl (configuration not stated),61*,·,·,·,0.8,-1.4,6,6,13,-12
CC1(OC(=O)c2ccc(Cl)nc2)C(=O)C=C2C=C(C3CC3)OC=C2C1=O (configuration not stated),1,·,·,·,-0.7,2.9,-1,·,-5,-14
CCOC(=O)c1[nH]c(C)c(C(=O)NCC2CCCO2)c1C (configuration not stated),-13,·,·,·,1.0,1.7,5,2,3,-8
CCc1nn2c(=O)c(S(=O)(=O)Nc3ccc(Cl)cc3)c(C)nc2s1,-4,-1,0,7.1,-0.5,0.2,-13,-4,-10,·
CCCCCN(C(=O)CCC(=O)OCC(=O)NC1CCC(C)CC1)c1c(N)n(CCCC)c(=O)[nH]c1=O (configuration not stated),0,9,-4,-0.7,0.2,-0.3,0,-3,·,-11
Cc1nnc(NC(=O)c2ccccc2-c2ccccc2C(=O)O)s1,-16,13,-1,-4.6,0.4,2.2,11,-4,-3,2
O=c1cc(NCc2ccco2)c2ccccc2o1,-1,·,·,·,-0.6,-1.7,-7,0,1,-4
COc1ccc(NC(=O)N2CCCCCC2)cc1OC,-2,5,13,4.4,0.7,0.8,-1,5,-3,-35
CN1CCC(N(C)C(=O)/C(C#N)=C/c2ccccc2)CC1,24,11,14,-3.1,0.2,1.8,-2,-3,-6,0
CCNc1nc(NC(C)C)nc(Oc2ccc(=O)n(C)n2)n1,-15,13,12,1.8,0.4,6.7,3,0,-3,-4
Cc1ccc2c(c1)c(CC(=O)Nc1ccc(F)cc1)c(C(=O)O)n2C,-12,3,-2,3.1,0.9,2.0,-9,9,0,4
CCOC(=O)COc1ccc2c(=O)c(-c3ccccc3)coc2c1,-11,-7,-17,3.2,-3.4,-0.4,0,7,-7,-4
O=C(/C=C/c1cccc(Cl)c1)NCCCN1CCOCC1,-6,7,15,3.2,0.1,-0.5,-5,2,-5,-5
C=CCn1c(O)c(C(CC)=NCc2cccnc2)c(=O)[nH]c1=O,-1,·,·,·,-0.3,2.1,-16,21,-4,-5
# (more compounds)
SMILES,T cruzi repl,rRNA inh HTS,rRNA inh HTS OD600,rRNA inh HTS RFP,Bfl-1 A1 inh,LANA-H2B inh,Calb FLC,B2AR ag,Beta cell apopt,ALR H2O2 inh
COC(=O)CN=C1OC(=O)N2C(=O)C3=C4[C@@H](C[C@H]5C(=O)N(c6ccccc6)C(=O)[C@H]5[C@H]4[C@@]12Cc1ccccc1)[C@H]1C(=O)N(c2ccccc2)C(=O)[C@H]1[C@H]3C,-6,0,9,2.1,-0.8,-2.9,20,-2,-2,-10
Cn1nc(C(F)(F)F)c(C(=O)Nc2cccc(Cl)c2)c1Cl,-4,·,·,·,0.2,-7.7,-15,-17,3,-20
Nc1nc(SCC(=O)NC2CCCc3ccccc32)n[nH]1 (configuration not stated),-5,3,-2,-1.9,-0.1,6.1,0,2,-24,0
O=C(c1ccc(COc2ccccc2[N+](=O)[O-])o1)N1CCCCCC1,3,·,·,·,0.5,-2.4,-3,-6,0,-1
S=C1NCCOCCOCCOCCOCCNC(=S)N2CCOCCOCCN1CCOCC2,-13,3,-2,0.7,-0.3,1.2,-1,2,1,-9
Cn1cnc([N+](=O)[O-])c1Sc1ncccc1N,-12,·,·,·,-0.1,-2.8,4,6,5,4
CS(=O)(=O)N1CCCC(C(=O)N2CCN(c3cccc(Cl)c3)CC2)C1 (configuration not stated),-13,-5,8,-1.6,0.1,1.0,2,4,·,6
CCN1CCN(C(=O)CCc2nnc(CCc3c[nH]c4ccccc34)o2)[C@@H](C)C1=O,-6,1,2,0.5,-0.6,1.0,7,0,0,-6
CCOc1ccc(N(CC(=O)N2CCCC2)S(=O)(=O)c2ccc(Cl)cc2)cc1,-8,-9,-13,11,0.6,-0.2,0,-21,-12,·
CN(C)/C=N/c1cnc(C(=O)c2ccc(Cl)cc2)n1C,20,-1,-2,-8.3,0.3,2.1,11,6,-7,3
CN(C)C(=O)c1ccc(-n2cnc3ccccc3c2=O)cc1,-14,15,10,-6.0,-0.3,-0.8,-8,-2,1,-2
O=C(Nc1ccc(F)c(Cl)c1)Nn1cnnc1,-12,-4,2,0.6,0.2,-3.6,-6,2,-2,-8
CC(c1nc2ccccc2n1Cc1ccccc1)N1CCCCC1 (configuration not stated),38,4,3,3.1,1.1,-5.8,-3,-3,-2,-9
CCC(C)c1ccc(NC(=O)c2[nH]c(C)c(C(C)=O)c2C)cc1 (configuration not stated),25,5,-44,15,0.0,3.5,7,18,13,0
Cc1c(C2CC(=O)N(c3ccccc3)C2=O)[nH]n(-c2ccccc2)c1=O (configuration not stated),-1,·,·,·,-0.1,3.4,3,-1,1,15
NC(=O)COc1ccc2c3c(c(=O)oc2c1)CCCCC3,-8,9,-1,-5.7,-0.1,-6.7,122*,-9,-1,-7
CCOC1OC(=O)C(Cl)=C1Nc1ccc(C)cc1C (configuration not stated),2,-9,-8,-15,-0.2,-1.9,-23,-2,0,2
COc1ccccc1Oc1nc(-c2cccnc2)nc2ccccc12,32,-34*,-23*,-3.6*,0.8,-1.8,4,12,-3,0
CN(C)Cc1nc2c(c(=O)[nH]1)C1(CCCCC1)Cc1ccccc1-2,46,-39,-49,-17,-0.2,0.5,-18,-4,5,1
O=C(O)[C@@H]1CCCN1C(=O)COc1ccc2c3c(c(=O)oc2c1)CCC3,-12,·,·,·,-0.1,0.2,-4,-2,-3,-6
C=CCNc1nc(C(F)(F)F)nc2c1nnn2Cc1ccccc1Cl,43,-2,1,-0.3,-0.2,1.2,3,-4,13,-1
COc1cccc(OCc2cc(C(=O)NCc3ccc4c(c3)OCO4)no2)c1,9,-33*,-24*,-9.3*,-0.5,1.1,-29,4,-3,-3
CCc1c(O)nc(SCC(=O)Nc2nc3ccccc3s2)n(-c2ccccc2)c1=O,-12,-30,-28,9.6,-0.2,1.9,9,4,·,96*
CSCC(=O)N1CCC(Oc2cccc(C(=O)NCc3ccccn3)c2)CC1,-7,3,3,-4.3,0.0,-1.6,-23,5,1,-4
COc1ccc(C2CC2C(=O)c2ccccn2)cc1 (configuration not stated),-12,-15,-28,2.5,-3.8,1.6,27,-21,-7,-2
# Next results:
SMILES,T cruzi repl,rRNA inh HTS,rRNA inh HTS OD600,rRNA inh HTS RFP,Bfl-1 A1 inh,LANA-H2B inh,Calb FLC,B2AR ag,Beta cell apopt,ALR H2O2 inh
Cc1cc(=O)oc(C)c1C(=O)n1nc(C)c2c1C[C@@H]1[C@H]2C1(C)C,-3,·,·,·,-0.2,4.0,-4,0,2,-7
CCOc1cccc(C(=O)Nc2ccccc2N2CCN(C(=O)C(C)C)CC2)c1,3,·,·,·,-0.4,0.7,13,1,2,-2
Cc1cc(C)cc(N(CCC#N)C(=O)COC(=O)c2nc3nc(C)cc(C)n3n2)c1,-8,-4,-2,-0.8,0.6,-1.5,2,-1,-6,-23
COc1ccc(CCNC(=O)c2ccc3nc(N4CCOCC4)sc3c2)cc1OC,-2,-16,-28,-2.4,0.7,3.2,-9,0,-10,·
CC(C)c1ccc(NC2CCCN(C(=O)CCc3cnn(C)c3)C2)cc1 (configuration not stated),5,2,-6,-3.9,-0.2,4.3,-15,-1,-7,98*
Cc1nc(NCCc2ccc(S(N)(=O)=O)cc2)c2c3c(sc2n1)CCC3,26,·,·,·,-0.1,2.6,29,20,2,-1
O=C(CSc1ccccc1)Nc1ccc(-c2nc3ccccc3[nH]2)cc1,39,·,·,·,-0.3,4.7,-12,-9,15,-9
Cc1noc(C)c1COc1ccccc1C(=O)NCc1ccco1,·,4,3,1.8,1.3,-25,·,1,-6,7
O=C(NCc1ccccc1F)C12CC3CC(CC(C3)C1)C2,5,1,0,-0.3,0.8,0.9,2,1,0,-4
CSc1ccccc1C(=O)NC1CCCCCC1,17,·,·,·,-0.4,-5.8,-3,2,-6,0
Cc1nn(-c2ccccc2)c(N)c1Sc1cccc([N+](=O)[O-])c1,38,·,·,·,0.4,2.0,?,2,3,-5
COc1ccccc1-c1noc2ncnc(Nc3cccc(C)c3C)c12,-21,-16*,5.6*,0.0*,2.6,-0.8,13,1,·,9
CN(C)c1ccc(NC(=O)/C=C/c2ccccc2Cl)cc1,12,·,·,·,-3.1,0.5,-18,11,11,40
O=C(O)c1ccc2c(c1)SC1=NS(=O)(=O)CCN12,-17,20,8,-11,0.4,5.7,-12,-10,4,37
O=C(OCc1ccccc1)N1CCc2ccccc21,-6,-8,2,3.5,-6.5,-2.4,-38,-5,2,-38
CCc1c(C)sc(NC(=O)C2CC2)c1C(=O)OC(C)C,22,-12,0,-1.1,0.4,0.4,6,-4,-2,-6
CCC(=O)Nc1c(C)n[nH]c1C,-5,·,·,·,-0.3,-0.7,-7,-2,-7,-11
COc1cc(/C=C/C(=O)NC(=O)c2ccccc2O)ccc1OC(C)=O,-25,·,·,·,-3.2,0.2,5,0,-7,·
COC(=O)c1cn(NC(=O)c2ccc([N+](=O)[O-])c(C)c2)c(=O)c2ccccc12,-11,3,6,2.1,-0.1,3.8,-10,1,-7,1

# Only part of the results is shown (hit frequency here may not be typical).
